High-throughput results (PubChem BioAssay)
CSC inhib: blocks cancer stem cells | cancer stem cell-like cells viability, luminescence | 300,000 compounds, 1.1% hits | inhibition, % at 7.5 µM;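 active = mean at 75% or more and at least half the replicates too; inconclusive = mean and replicates disagree; tested in HMLE shEcad cells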;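 also: 0% = median of negative and 100% = median of positive control wells; the first replicate is given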
Env fusion inh: blocks HIV Env-driven cell-cell fusion | HeLa-JRFL Env/CEM21 cell fusion, luciferase | inhibition, % at 12.3 µM | 360,000 compounds, 1.1% hits | AID 651610;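 active = mean replicate inhibition score of at least 50 and every replicate individually at or above 50; inconclusive = only one of the two criteria met; inactive = mean below 50 and not all replicates reaching 50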;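 also: 0% = plate neutral controls and 100% = maraviroc near 300 nM; one replicate is shown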
PABP FP inh: PABP-poly(A) binding inhibition | PABP-poly(A) RNA binding, fluorescence polarization | P11940 | 290,000 compounds, 1% hits | inhibition, % at 35 µM;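 active = 50% or more with normal probe brightness, or confirmed in later tests; inconclusive = above 50% with abnormal brightness, or retests that disagree; inactive = below 50% or failed in later tests; about a fifth of its hits are not listed in these tables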;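 also: calls also rest on retests at 20 µM and on dose response follow-up; controls were probe without protein and protein plus probe with vehicle; some compounds called inactive have numbers as strong as hits; many hits fall short of the cut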
eIF4H FP inh: inhibitors of RNA binding by human eIF4H; eIF4H fluorescence polarization binding assay; Q15056; AID 2012; 290,000 compounds, 0.94% hits; inhibition, % at 35 µM;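 active = 50% or more with normal probe brightness, or confirmed in later tests; inconclusive = above 50% with abnormal brightness, or retests that disagree; inactive = below 50% or failed in later tests; about a fifth of its hits are not listed in these tables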;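 also: calls also rest on retests at 20 µM and on dose response follow-up; 0% = protein and probe with vehicle and 100% = probe without protein; strong numbers were not always called active; many hits fall short of the cut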
MT1-MMP act inh: inhibitors of human MT1-MMP activation; HT1080 RFP-PRO-GFP cells, GFP/RFP ratio fluorescence, overnight; percent of plate control window, DMSO zero; GFP/RFP ratio change, % at 20 µM; P50281; 360,000 compounds, 0.061% hits;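 active = GFP/RFP ratio change of at least 30% with cell ATP level not reduced by more than half and red fluorescence within 50% of control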; also: strong numbers were not always called active
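Assay system: HT1080 RFP-PRO-GFP cells. Benchmarks: DMSO vehicle wells and RFP-L50D-GFP reporter cell wells. Times: overnight cell settling, then overnight compound exposure, 37 °C, 5% CO2. Compound: 20 µM single dose, 1% DMSO. Read-out basis: GFP/RFP fluorescence ratio.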
Yeast UUG start: alters start codon recognition fidelity in yeast; S. cerevisiae UUG-firefly luciferase reporter, luminescence/redox ratio; activity score, % at 18.7 µM; AID 602363; 350,000 compounds, 0.13% hits;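 active = replicate mean at a twofold rise or more, about +100% in these data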;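 also: firefly luciferase made from a UUG start codon reports start codon fidelity; reporter light over untreated wells divided by growth signal over untreated wells; some hits fall short of that in this replicate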
Rce1 inh: yeast Ras-converting enzyme inhibition. Q03530. yeast membranes, quenched prenylated peptide cleavage fluorescence. 290,000 compounds, 0.27% hits. calls only;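 active = fall in fluorescence gain of 50% or more versus controls, with final raw signal at or below 3038400; inconclusive = same 50% fall but final raw signal above 3038400; inactive = fall in fluorescence gain under 50%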;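 also: plate controls were neutral control wells for no effect and wells lacking membranes for full effect; tested at 10 µM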
Target sequence (Q03530 whole entry, looked up): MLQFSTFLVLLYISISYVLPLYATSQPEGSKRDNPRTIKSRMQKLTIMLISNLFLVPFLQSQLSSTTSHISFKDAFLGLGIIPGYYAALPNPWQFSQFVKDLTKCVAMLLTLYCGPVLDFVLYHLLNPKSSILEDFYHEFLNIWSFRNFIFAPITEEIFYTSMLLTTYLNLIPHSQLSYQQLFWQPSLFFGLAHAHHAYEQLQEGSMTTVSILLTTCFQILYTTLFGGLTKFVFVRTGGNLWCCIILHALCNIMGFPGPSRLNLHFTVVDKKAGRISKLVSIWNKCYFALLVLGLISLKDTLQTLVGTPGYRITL
MT1-MMP act inh RFP: recorded beside MT1-MMP act inh, whose call it bears; RFP signal change, %; measured here: RFP expression control read;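 0 = vehicle wells; hits needed this value within 50% of zero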
* marks the source's active call; other numbers are inactive results; i = inactive; ? = inconclusive; . = not tested or not shown; & = joins results of further samples; [ ] = dose if it differs, or a comment. No enrichment for hits. Share with any hit: about 2.9%.

Molecule,eIF4H FP inh,Env fusion inh,MT1-MMP act inh RFP,Rce1 inh,Yeast UUG start,PABP FP inh,MT1-MMP act inh,CSC inhib
Cc1ccc(-n2c(C)cc(C(=O)COc3c(CO)cc(F)cc3CO)c2C)cc1C,-6,-17,-21,i,-2,-9,-3,0
CC(=O)NC(Cc1ccccc1C)C(=O)NC1CCN(C(=O)c2cccc(C)c2)CC1 (stereo not given),5,-11,2,i,.,4,2,-13
CN1CCc2c(sc(NC(=O)Cc3ccccc3)c2C(N)=O)C1,5,4,4,i,-19,-4,-2,2
CCN1C(c2ccc(F)cc2)=CS/C1=C(/C#N)c1nnc2n1-c1ccccc1SC2,.,29,-10,.,-5,.,-5,.
O=C(CSc1nc2ccccc2c(=O)n1-c1ccc(Cl)c(Cl)c1)Nc1ccc2c(c1)CCC2,.,-10,0,.,-8,.,-2,.
CC(C)(C)NC(=O)CSc1nc2ccc(NC(=O)CSc3nnnn3Cc3ccccc3)cc2s1,-5,.,-15,i,-6,-12,5,-2
COC(=O)c1ccc(C(=O)OC)c(NC(=S)N2CCCC2)c1,-10,-12,12,i,-4,-5,8,2
CCc1cc2c(=O)[nH]c(-c3ccccn3)nc2s1,5,33,11,i,-65,?,40,.
Oc1c(C(c2cccc(F)c2)N2CCN(Cc3ccccc3)CC2)sc2ncnn12 (stereo not given),1,-8,2,i,-10,12,0,-2
O=C(NCCCNC1CCCCC1)c1ccc(/C=N/O)nc1,0,.,0,i,-10,-11,1,-10
CCCCc1nnc(NC(=O)CSc2nc(C)cc(=O)[nH]2)s1,8,-24,-5,i,-1,2,-5,.
CCOc1ccc(S(=O)(=O)N2CCC(C(=O)NCc3ccncc3)CC2)cc1,2,26,0,i,-8,-12,-1,-7
CC(C)c1ccc(OCc2ccc(C(=O)N(C)C)o2)cc1,-4,-63,-8,i,-15,-7,10,.
CCC(c1n[nH]c(=S)n1-c1ccccc1)N(C)C (stereo not given),-9,-132,2,i,.,3,2,-15
Cc1ccccc1C(=O)Nc1c(C(=O)N2CCCC2)cnn1-c1ccccc1,-3,.,-1,i,-3,8,0,-11
COCCNC(=O)Cn1ncc2ccsc2c1=O,-10,12,4,i,-18,0,2,-4
N#C/C(=C(/O)c1cc2ccccc2o1)c1nc2ccccc2s1,1,-1,-25,i,-10,-9,-1,108*
Cc1ccc(NC(=S)NCc2ccccn2)cc1,-14,.,4,i,-34,-11,-1,10
COCc1nc2sc3c(c2c(=O)[nH]1)CCCC3,-1,-64,2,i,.,-6,4,3
CC(C)N(C(=O)Cc1ccccc1[N+](=O)[O-])C(C)C,7,16,-2,i,-10,5,0,-8
Cc1cc(NC(=O)CSc2n[nH]c(-c3cccs3)n2)no1,-8,-82,-1,i,-13,-5,-1,-13
Nc1nn2c(-c3ccccc3)cc(=O)[nH]c2c1N=Nc1ccc(O)cc1,38,-17,-1,i,-12,4,13,16
CCOC(=O)N1CCN(C(=O)c2csc3c2CCCCC3)CC1,7,-12,-9,i,0,11,-1,.
Cc1ccc(C)n1-c1ccc(C(=O)N/N=C/c2ccncc2)cc1,0,-14,2,.,.,-8,2,2
CC(=O)NCCc1csc(-c2ccccc2)n1,5,-61,7,i,-3,-10,4,-5
CCOc1nc(C#N)nc(N2CCCCC2)n1,-1,24,-7,i,-13,2,3,.
CC(C)c1nnc(NC(=O)CCC(=O)NCc2ccccc2Cl)s1,.,-16,3,i,-15,.,-1,-1
CC(C(=O)NC1C(=O)N2C(C(=O)O)=C(CSc3nnnn3C)CSC12)n1cc(Cl)cn1 (stereo not given),7,10,0,i,.,-5,-8,-6
CCOc1ccc(N(CC(=O)Nc2ccc(C)cc2)S(=O)(=O)c2c(C)[nH]c(=O)[nH]c2=O)cc1,-2,-8,-3,.,11,0,-1,-15
O=C(Nc1ccccc1)[C@@H]1CC=C[C@@H]2CCN(C3CCCCC3)C(=O)[C@@H]21,.,-9,0,i,-10,.,2,-11

A draw from above in order of molecular weight, smallest number first:
Molecule,eIF4H FP inh,Env fusion inh,MT1-MMP act inh RFP,Rce1 inh,Yeast UUG start,PABP FP inh,MT1-MMP act inh,CSC inhib
Cc1ccc(NC(=S)NCc2ccccn2)cc1,-14,.,4,i,-34,-11,-1,10
CC(C)c1ccc(OCc2ccc(C(=O)N(C)C)o2)cc1,-4,-63,-8,i,-15,-7,10,.
CC(C)c1nnc(NC(=O)CCC(=O)NCc2ccccc2Cl)s1,.,-16,3,i,-15,.,-1,-1

Carrying on.
Molecule,eIF4H FP inh,Env fusion inh,MT1-MMP act inh RFP,Rce1 inh,Yeast UUG start,PABP FP inh,MT1-MMP act inh,CSC inhib
COc1ccc(-c2nc(CN3CCN(Cc4ccccc4)CC3)c(C)o2)cc1,5,2,-1,i,-14,6,-3,-8
CCOC(=O)c1c(C)sc2c1N(C(=O)CCl)c1cc(Cl)ccc1S2,4,.,-8,i,.,0,1,130*
Cc1cccc(Cn2c(=O)c3c(nc4n3CCCN4Cc3ccccc3)n(C)c2=O)c1,1,.,-14,i,-13,10,4,35
O=C(Nc1ccncc1)C1CCN(S(=O)(=O)c2ccccc2C(F)(F)F)CC1,-14,.,-13,i,0,-1,-4,12
COc1ccccc1NC(=O)Nc1ccc(C)cn1,-4,-17,-11,i,-18,2,-7,23
CC1CC(C)CN(CCCNC(=O)c2ccc3c(c2)N(Cc2ccccc2)C(=O)c2ccccc2S3=O)C1 (stereo not given),12,-7,-2,i,-7,4,1,8
Cc1ccc(S(=O)(=O)N/N=C2/CCCCC2C2CCCCC2)cc1[N+](=O)[O-] (stereo not given),6,3,7,i,.,-6,2,17
NC(=O)NC(CC(=O)NCCCc1ccccc1)c1ccc(Cl)cc1 (stereo not given),5,-20,4,i,-8,10,4,-7
COc1ccccc1OCC(O)CN1CCN(CC(=O)Nc2c(C)cccc2C)CC1 (stereo not given),.,-9&17,3&2,i,-1&4,.,2&5,-4&-9
COCc1cccc(-c2csc(C(O)c3ccccc3)n2)c1 (stereo not given),.,-15,-20,.,-16,.,1,.
O=C1NC2(CCCCC2)C(=O)N1c1ccc(Cl)cc1,-12,-39,2,i,-18,-7,0,-11
CCOc1ccc2nc(NC(=O)CC3Oc4ccccc4NC3=O)sc2c1 (stereo not given),-4,-9,-1,i,-11,-5,2,-2
COC(=O)c1sccc1Oc1c(Cl)cccc1[N+](=O)[O-],0,2,-3,i,.,-4,-1,-13
COc1ccc(F)cc1S(=O)(=O)N1CCc2ccccc2C1,.,12,0,.,-1,.,0,.
Cn1cc([C@@H]2C[C@H]3CN(Cc4cccc(Cl)c4)C(=O)[C@]34CCCN24)c2ccccc21,18,27,58,i,.,-3,35,9
CCOC(=O)C1CCCN(C(=O)CCCn2nnnc2CN2CCC(C)CC2)C1 (stereo not given),2,-5,4,i,-3,9,1,-1
CCC(C)C(NC(=O)C(CC(C)C)NC(=O)C(CO)NC(=O)C1CCC(=O)N1)C(=O)OC (stereo not given),-3,4,5,i,.,-5,0,8
CC1CCN(S(=O)(=O)c2cc(Br)cc(C(=O)NC3=NCCS3)c2)CC1,-4,12,-9,i,-9,-4,6,0
COc1ccc(C(=O)NC2CC2)cc1OC1CCN(Cc2ccc(SC)cc2)CC1,-12,-13,-4,i,5,-3,-11,-2
CNC(=O)c1ccccc1S(=O)(=O)c1ccccc1C#N,7,.,5,i,0,4,4,-9
CCOC(=O)C1=NNC(C(=O)c2ccc(Cl)cc2)C1c1ccc(OC)cc1 (stereo not given),-1,0,0,i,.,-6,0,-6
COc1ccc(/C=N/n2c(-c3cc(C)[nH]n3)n[nH]c2=S)cc1OC,11,7,-4,i,-11,10,1,-6
Nc1nc(N2CCN(c3ccc(F)cc3)CC2)n[nH]1,-13,5,0,i,.,-12,-2,-8
Cc1cc(NC(=O)CN2CCN(c3cccc(Cl)c3)CC2)no1,-13,-2,2,i,.,4,-2,-10
CN(CC(O)Cn1cnc2c1c(=O)n(C)c(=O)n2C)c1ccccc1 (stereo not given),-4,-4,-11,.,.,-2,-4,-9
Cc1cc(O)ccc1N=Cc1c(C(F)(F)F)[nH][nH]c1=O,38,-17,56,i,.,27,52,8
CCOc1ccc(C2C(C#N)=C(N)Oc3cc(C)n(CCN(C)C)c(=O)c32)cc1OCC (stereo not given),4,-39,-1,i,6,7,-1,-10
CC(Sc1nc2ccccc2c(=O)[nH]1)C(=O)O (stereo not given),-6,-107,3,i,6,6,3,-3
CC(C)OC(=O)C(C#N)c1nc2ccccc2nc1N1CCCC1 (stereo not given),14,.,-2,i,-21,-10,-5,-4
CCOC(=O)c1c(NC(C)=O)sc2c(OC)c(Br)ccc12,2,.,-1,i,-18,5,-11,-8
CC(C)(C)c1csc(NNC(=O)c2ccc(Cl)cc2)n1,19,-1,6,i,-7,1,7,40
CCN(C(=O)c1cc(Cl)ccc1Cl)C1CCS(=O)(=O)C1 (stereo not given),.,2,4,i,4,.,3,-7
CN(NC(=O)C(C)(C)C)c1nc(-c2ccccc2)nnc1C(F)(F)F,-4,10,-5,i,-8,14,-4,-1
COC(=O)c1sccc1NS(=O)(=O)c1ccccc1,2,-48,5,i,-10,4,0,-2
CCCCCCCCc1nc(SC(C)C(=O)O)n[nH]1 (stereo not given),-5,-7,2,i,.,-14,-4,.
CCNC(=S)N1CCN(Cc2ccc3c(c2)OCO3)CC1,-9,-2,-2,i,.,-8,-1,6
O=C(CSc1nnc(-c2ccc(Cl)cc2)n1Cc1ccco1)Nc1ccc2c(c1)OCCO2,-5,16,-2,i,-8,1,-5,.
O=C(NC1CCN(C(=O)N2c3ccccc3Sc3ccccc32)CC1)c1ccccc1Cl,5,.,-11,i,-5,0,-11,0
COc1ccc(-c2nnn(CC(=O)N(Cc3cccs3)C(C)C(=O)NC3CCCC3)n2)cc1OC (stereo not given),-1,78*,2,i,2,0,-3,.
Cc1[nH]n(-c2ccc([N+](=O)[O-])cc2)c(=O)c1/C=N/N1CCOCC1,1,-10,-3,i,.,-2,4,63
COc1ccc([C@@H]2CC=C(C(=O)O)[C@H](c3ccccc3F)N2S(=O)(=O)c2ccc(C)cc2)cc1OC,.,-5,3,.,-18,.,-5,4
O=C(C1=C[C@@H](C2CC2)C[C@@H](OCCCCO)O1)N1CCN(Cc2ccc3c(c2)OCO3)CC1,-5,-11[16.7 µM],1,i,-5&-17,-4,-2,-3
CCC(c1nnnn1CCc1ccccc1)N(Cc1ccco1)Cc1cc2c(C)ccc(C)c2[nH]c1=O (stereo not given),-5,.,-35,i,.,33,-25,14
CCC(CC)C(=O)N1CCN(c2cccc(C)c2C)CC1,-10,.,-1,i,.,-1,-4,-12
Cc1cccc(NC(=O)C2CCN(S(=O)(=O)c3cccc4nonc34)CC2)c1,0,-7,-5,.,-12,2,-5,-8
O=C(Nc1ccccc1Cl)c1cc[n+]([O-])cc1,-12,0,1,i,-12,-3,0,-4
COC(=O)C1=C(C)N(Cc2ccccc2)C(=NCc2ccc(OC)cc2)N[C@H]1c1ccccc1,.,-11,-2,.,1,.,-4,12
COc1ccc(CN=C(Nc2ccccc2)SC2CC(=O)NC2=O)cc1 (stereo not given),-2,1,-2,i,.,-2,-1,-3
CCOC(=O)c1csc(NC(=O)C2=COCCO2)n1,-6,-48,3,i,-20,-6,-3,-12
CS(=O)(=O)N1N=C(c2ccccc2)CC1c1ccc2nccnc2c1 (stereo not given),-4,-5,1,i,-24,0,-2,-4
